LDHA block: inhibitors of human lactate dehydrogenase A | P00338 | purified LDHA, NADH/diaphorase-resazurin fluorescence; stronger effect = lower value | activity change, % (values are at about 110 or 230 µM) | actives 0.15% (n = 480,000) | AID 1347041; in the data active = activity change below about -30%; inconclusive = mostly about -25% to -30%;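 also: plate controls were DMSO wells for no effect and wells without enzyme for full effect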
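Resorufin fluorescence (ex540/em590), read at 0 and 20 min after diaphorase/resazurin addition, reports the NADH left after a 5 min room-temperature reaction of 2 nM human LDH5 with 0.06 mM NADH and 0.2 mM pyruvate.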
POLK inh: inhibitors of human DNA polymerase kappa; purified Pol kappa, fluorescent DNA synthesis assay, 10 min; Potency, µM (top dose mostly 107 µM), inactives show at the highest dose activity, negative = inhibition, hits mostly inhibitors; actives 0.53% (n = 400,000); AID 588579; also: potency is read from the fitted curve at half-maximal effect; % is scaled to controls: 0 for no effect and ±100 for the full control effect
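Enzyme at 10 nM met test compounds for 15 min at room temperature. Substrate addition (50 nM final) began the reaction, which was monitored by fluorescence at 0 and 10 min.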
ALOX12 inh: ALOX12 (human) lipoxygenase inhibition; P18054; purified 12hLO, xylenol orange hydroperoxide absorbance; Potency, µM (titrated, usually from 108 µM), without a hit: at the highest dose activity change, negative = inhibition, hits mostly inhibitors; actives 1.1% (n = 580,000); AID 1671190; also: potency is read from the fitted curve at half-maximal effect; % is scaled to controls: 0 for no effect and ±100 for the full control effect
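Purified human 12hLO (150 nM final) in 25 mM Hepes, 0.01% Triton X-100, pH 7.0 was preincubated 15 min at room temperature with compound. Then 40 uM arachidonic acid was added, 30 min. Hydroperoxide was read by Fe-XO absorbance ratio 573/405 nm.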
ERG-DNA inh: blocks human ERG Ets domain binding to DNA | Potency, µM (highest dose often 76.9 µM), without a hit: at the top dose FP activity, negative = inhibition, actives largely listed as inhibitors | actives 0.028% (n = 370,000) | P11308 | fluorescence polarization, His-ERG Ets domain / labelled DNA | AID 624246; active = well fitted inhibition curve with a large enough effect in the polarisation, with a control signal flat; inconclusive = small, poorly fitted or top-dose-only effect, or effect the other way, or a change in a side signal; inactive = no such curve, though single readings can be large or run the other way; the % refers to the polarisation;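 also: polarization taken with two DNA probes labelled with fluorescein and Texas red; potency is read from the fitted curve at half-maximal effect; % of control where 0% means no effect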
Target sequence (P11308 whole entry, looked up, the tested form may be a part): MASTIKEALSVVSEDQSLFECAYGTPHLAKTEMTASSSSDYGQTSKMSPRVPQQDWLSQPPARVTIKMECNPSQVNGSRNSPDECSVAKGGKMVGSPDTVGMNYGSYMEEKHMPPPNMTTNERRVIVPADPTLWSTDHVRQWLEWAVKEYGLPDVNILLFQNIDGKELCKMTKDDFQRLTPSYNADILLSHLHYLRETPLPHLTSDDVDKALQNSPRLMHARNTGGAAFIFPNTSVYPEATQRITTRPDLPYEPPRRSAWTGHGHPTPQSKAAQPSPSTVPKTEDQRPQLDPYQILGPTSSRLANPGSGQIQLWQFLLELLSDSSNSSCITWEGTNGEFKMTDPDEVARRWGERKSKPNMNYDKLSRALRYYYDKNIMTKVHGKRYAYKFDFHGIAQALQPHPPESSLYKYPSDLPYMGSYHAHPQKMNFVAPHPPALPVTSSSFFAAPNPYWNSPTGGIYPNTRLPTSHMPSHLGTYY
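His-tagged ERG Ets domain (1 uM in the protein solution; 300mM KCl, 50mM Tris-HCl, 1mM EDTA, 1mM DTT, pH 7.5) received compound, then a probe mix of 5 nM fluorescein-DNA and 100nM Texas-615-DNA. Fluorescence polarization was read for both dyes.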
Apoferritin bind: candidate novel general anesthetic via apoferritin binding | actives 0.074% (n = 350,000) | apoferritin/1-aminoanthracene competitive binding, fluorescence | Potency, µM (doses to about 77.5 µM), for inactives: at the highest dose activity change, negative = displacement, hits mostly inhibitors | P02791; also: potency is read from the fitted curve at half-maximal effect; % is scaled to controls: 0 for no effect and ±100 for the full control effect; nearly all actives have a fitted effect of over 20% in size
Target sequence (P02791 2-175 limits assumed): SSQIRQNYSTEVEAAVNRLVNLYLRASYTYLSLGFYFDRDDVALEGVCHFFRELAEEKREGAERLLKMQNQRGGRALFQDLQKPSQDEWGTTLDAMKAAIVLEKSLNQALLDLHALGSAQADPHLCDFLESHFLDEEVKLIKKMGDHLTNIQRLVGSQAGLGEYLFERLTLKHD
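Horse-spleen apoferritin (10 uM) was mixed with 50% saturated 1-aminoanthracene in PBS, exposed to compounds for 10 min at room temperature, and read for fluorescence (ex 380 nm, em 535 nm). Competitive displacement was fitted with a four-parameter Hill equation.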
RGS4 inh: blocks human RGS4-accelerated GTP hydrolysis | actives 0.039% (n = 390,000) | Transcreener GDP fluorescence polarization, RGS4-accelerated GTP hydrolysis | Potency, µM (top dose mostly 114 µM), for inactives: at the highest dose activity change, negative = inhibition, actives largely listed as inhibitors | P49798; also: potency is read from the fitted curve at half-maximal effect; % is scaled to controls: 0 for no effect and ±100 for the full control effect; nearly all actives have a fitted effect of over 75% in size; some results filed as inactive show a strong effect at the top dose
Target sequence (P49798 whole entry, looked up): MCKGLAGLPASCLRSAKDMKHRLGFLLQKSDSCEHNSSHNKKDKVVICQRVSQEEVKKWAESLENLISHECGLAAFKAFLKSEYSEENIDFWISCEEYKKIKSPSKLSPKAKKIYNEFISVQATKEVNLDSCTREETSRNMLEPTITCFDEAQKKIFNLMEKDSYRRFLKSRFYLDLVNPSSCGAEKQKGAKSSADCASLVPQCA
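MLSMR compounds (23 nl, pin-transferred) preincubated 10 min at room temperature with a 500nM (2x) first reagent, then RGS4 at 900nM (2x) plus Transcreener GDP mix added; fluorescence polarization (620/688 nm) read before and after 90 min at 30 °C.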
The depositor's hits bear a star; ? = inconclusive; nt = no result given; & = joins results of further samples; [ ] = dose if it differs, or a comment. Unless noted, calls follow the shape of the dose curve; as a rule, active = well fitted curve in the direction sought with a large enough effect; inconclusive = small, poorly fitted or top-dose-only effect, or another doubt; inactive = no such curve, though single readings can be large; an effect the other way counts as inactive or inconclusive. The list is partial; count on the stated rates, not on these rows.

LDHA block,POLK inh,ALOX12 inh,ERG-DNA inh,Apoferritin bind,RGS4 inh,SMILES
-3,?,-13%,-7%,60%[activator],19%,OCCNc1c2ccccc2nc2ccccc12
-2,-6%,-10%,-18%,-18%,19%,CCN(CC)CCN(C(=O)/C=C/c1cccs1)c1nc2ccc(F)cc2s1
-3,-6%,-21%,10%,-4%,-6%,Fc1ccc(-c2csc(-c3cccnc3)n2)cc1F
-14,-12%,-25%,-6%,4%,13%,Nc1ccc(C(=O)Oc2ccc([N+](=O)[O-])cc2)cc1
1,-7%,-19%,7%,nt,4%,Cc1ccccc1OCC(=O)Nc1cccc(S(=O)(=O)NC2=NCCCCC2)c1
nt,-2%[60.1 µM],0%,nt,nt,nt,COc1ccc(Oc2ncc3nc(C)c(=O)n(Cc4cccs4)c3n2)cc1
-7&-11,-7%&-23%,-8%&-31%,0%&-2%,-2%&9%,24%[11.4 µM],O=C(Cn1cnc(S(=O)(=O)N2CCCC2)c1)Nc1ccccc1
4,-10%,?,2%,0%,-11%,CCC(=O)Nc1nc2c(s1)COc1ccccc1-2
-1,-42%,3%,5%,1%,-24%,O=C(N/N=C/c1ccoc1)c1ccccc1F
1,3%,?,-17%,?,-37%,Cc1ccc(O)c(NC(=S)NC(=O)c2ccccc2Cl)c1
-5,-22%,15%,-12%,-11%,11%,COc1cccc2cc(C(=O)N(Cc3cccs3)CC3CCCO3)c(=O)oc12 (stereo not given)
-1,-1%,0%,2%,-10%,-18%[11.4 µM],CC1CN(c2ccc(Oc3ccccc3)cc2)c2nc3c(c(=O)[nH]c(=O)n3C)n2C1 (stereo not given)
-4&-9,6%,-11%,nt,nt,-31%,CCOC(=O)c1ccc(-n2cccc2/C=C2\NC(=O)NC2=O)cc1
6,-5%,-27%,3%,-12%,-7%,COC(=O)c1sccc1NC(=O)c1cc2c(s1)CCCC2
-18,4%,-17%,17%,-4%,-7%,COc1ccc(C2NC(c3ccc(OC)cc3OC)C(C)C(=O)C2C)c(OC)c1 (stereo not given)
1,-3%,78%[activator],1%,-8%,-7%,CS(=O)(=O)c1ccc(-c2csc(-c3cccnc3)n2)cc1
0,-6%,12%,2%,?,-13%,CCn1c(CNC(=O)COc2ccc(C(C)C)cc2)nnc1SCC(=O)Nc1ccccc1
-6,-23%,-13%,-8%,-10%,-14%,CCN(c1ccccc1)S(=O)(=O)c1ccc(Cl)c(NC(=O)COC(=O)c2ccc(O)cc2)c1
-4,4%,?,9%,nt,3%,Cc1ccc(NC(=O)CSCC(=O)OCc2cc(=O)oc3cc(O)ccc23)c(C)c1
-6,25µM*,?,1%,-8%,-8%,COc1cc(OC)c2c(c1O)OC(c1ccccc1)CC2=O (stereo not given)
-3,-11%,-11%,7%,3%,3%,CSc1cc(C)n(-c2ccc(Cl)cc2)c(=S)c1C(C)=O
-2,-11%,-19%,4%,-10%,-8%,CCOC(=O)c1c(NC2OC(=O)c3c2ccc(OC)c3OC)sc(C(=O)OC(C)(C)C)c1C (stereo not given)
3,-1%,?,0%,?,-33%,Cc1nn2c(-c3ccccc3)ccnc2c1-c1ccccc1
3,8%,-5%,4%,-13%,12%,COc1ccc(-c2cnnc(N/N=C/c3ccc(OC)c(OC)c3)n2)cc1
-4,1%,-9%,49%[activator],-9%,-39%[56.9 µM],CC(=O)c1ccc(NC(=O)Cn2cnc(S(=O)(=O)N3CCC(C)CC3)c2)cc1
-2,-14%,?,-2%,-12%,-13%,CCCC(=O)Nc1nc(-c2ccccc2)c(CC)s1
9,79µM*,-1%,-3%,6%,-32%,O=C(O)C1OC(Oc2cc3oc(-c4ccccc4)cc(=O)c3c(O)c2O)C(O)C(O)C1O (stereo not given)
0,-17%,?,4%,5%,-10%,CCN1C=C(Cc2ccccc2C)C2=C(C1)C(c1ccccc1C)C(C#N)=C(N)O2 (stereo not given)
-1,-6%,-1%,-1%,-14%,27%,CSc1cc(C)n(-c2ccccc2C)c(=S)c1C(C)=O
-2,-44%,22%,-3%,-10%,-4%,COCCOC(=O)c1c(NC(=O)CNCc2ccco2)sc(C(N)=O)c1C
-5,0%,-19%,13%,-10%,-16%,Cc1cccc(C(=O)Oc2ccc(/C=N/NC(=O)c3ccncc3)cc2)c1
nt,nt,nt,nt,-17%,nt,Cc1ccc2c(Cl)cc(Cl)c(OCC(=O)NCc3ccco3)c2n1
-13,3%,?,-12%,10%,10%,C/C(CC(C)C)=N\Oc1nc(C)cc(C)n1
-1,-8%,26%,8%,?,-22%,Cc1cc(=O)oc2cc(OCC(=O)Nc3c(Cl)cccc3C(F)(F)F)ccc12
-1,-13%,-28%,13%,-13%,-18%,Cc1cc2oc(=O)cc(CN3CCN(S(=O)(=O)c4cccs4)CC3)c2cc1C
4,?,-78%,-7%,?,?,c1ccc(OCc2nnc3sc(C4COc5ccccc5O4)nn23)cc1 (stereo not given)
0,-1%,-6%,-10%,-20%,19%,Cc1c(OC(C)C(=O)N2C[C@H]3C[C@@H](C2)c2cccc(=O)n2C3)ccc2c3c(c(=O)oc12)CCCC3 (stereo not given in full)
-6,-24%,-17%,-1%,4%,-9%,CC1(C)NC(=O)N(CNc2cc(Cl)ccc2Cl)C1=O
-6,-13%,0%,-15%,-1%,19%,Cc1ccc(N2CC(C)Cn3c2nc2c3c(=O)[nH]c(=O)n2C)cc1 (stereo not given)
0,-18%,-10%,nt,-14%,21%,CCCNC(=O)COC(=O)/C=C/c1ccco1
5,-3%,?,-4%,?,-1%,COc1cc(C(=O)OC2CCCCC2=O)cc(OC)c1C (stereo not given)
-3,-6%,38%[activator],4%,-4%,1%,O=C(/C=C/c1ccccc1)NCc1ccco1
-5&7,-9%&2%,?,-6%&6%,?,11%&-23%,COC(=O)c1cccc(CN2C(=O)SC(Nc3ccc(C)cc3)C2=O)c1 (stereo not given)
-1,1%,11%,20%,-13%,?,CCCCC(=O)OCC(=O)Nc1cccc(S(=O)(=O)NC2=NCCCCC2)c1
-5,-19%,-29%,-5%,6%,3%,O=C(CCC(=O)c1ccc(Oc2ccccc2)cc1)Nc1ccc(C(=O)O)cc1
-2,-9%,0%,-1%,-3%,-14%,CCN(CC)S(=O)(=O)c1cccc(NC(=O)COc2ccc(F)cc2Br)c1
-3,-4%,11%,-1%,3%,-25%,CCOc1cc(S(=O)(=O)NCCN2CCOCC2)c(C)cc1C
3,6%,0%,11%,?,5%,N#CC(c1ccccc1F)(c1ncc(C(F)(F)F)cc1Cl)N1CCOCC1 (stereo not given)
-14,0%,402%[activator],-3%,1%,-8%,O=c1cc(-c2ccco2)oc2ccc(Cl)cc12
1,-6%,0%,-1%,-12%,-2%,CC1=C(C(=O)Nc2cccnc2)C(c2ccncc2)n2nnnc2N1 (stereo not given)
-9,-9%,-16%,2%,6%,23%,O=C(Nc1ccccc1Cl)c1ccccc1S(=O)(=O)c1ccccc1[N+](=O)[O-]
-9,-9%,-12%,-13%,3%,6%,Cc1cc2oc(C(=O)NCc3ccc(S(N)(=O)=O)cc3)c(C)c2cc1C
6,2%,-16%,13%,-11%,-28%,Cc1cccc(/C=N/NC(=O)c2cc(Br)ccc2O)n1
-12,-22%,0%,-5%,nt,25%,CCOc1ccc(OCCNC(=O)C(NC(=O)c2c(F)cccc2F)C(C)C)cc1 (stereo not given)
-7,-34%,-25%,8%,-5%,-48%,O=C(/C=C/c1ccc(F)cc1)NCc1ccco1
0,-9%,224%[activator],-5%,-12%,16%,C=CCn1c(CCNC(=O)c2ccccc2F)nnc1SCC(=O)Nc1ccccc1F
6,50µM*,?,33%[activator],13%,?,O=C(O)c1cc(O)c2c(c1)C(=O)c1cccc(O)c1C2=O
-4,-19%,nt,-10%,1%,23%[56.9 µM],Cc1cc(C)cc(N2CCCn3c2nc2c3c(=O)[nH]c(=O)n2C)c1
-17,-17%,-20%,9%,?,17%,Cc1cc(OCCCn2ccnc2)ccc1C(C)C
-1,4%,28%,5%,nt,-9%,CC(=O)N/C(=C\c1ccccc1)C(=O)OC(C)C(=O)Nc1ccccc1F (stereo not given)

The final 2 compounds of the section before open the next one:
LDHA block,POLK inh,ALOX12 inh,ERG-DNA inh,Apoferritin bind,RGS4 inh,SMILES
-17,-17%,-20%,9%,?,17%,Cc1cc(OCCCn2ccnc2)ccc1C(C)C
-1,4%,28%,5%,nt,-9%,CC(=O)N/C(=C\c1ccccc1)C(=O)OC(C)C(=O)Nc1ccccc1F (stereo not given)
1,-4%,-6%,nt,-17%,-3%,C=C(Cl)COc1ccc2c(C)cc(=O)oc2c1
-12,-20%,-23%,-4%,69%[activator],-15%,CCN(c1ccccc1)S(=O)(=O)c1ccc(Cl)c(NC(=O)CN2CCCCCC2)c1
-4,-2%,1%,nt,nt,-39%,Cc1cc(Br)ccc1NC(=O)CNC(=O)Cc1ccc(S(=O)(=O)N2CCOCC2)s1
7,-10%[60.1 µM],0%,nt,-9%,0%,C=CCNC(=O)Nc1ccc2oc(C)nc2c1
1,1%,0%,0%,-6%,-6%,COc1ccccc1OCC(=O)NCc1ccco1
0,-11%,436%[activator],5%,-4%,6%,CN(C)/C=N/c1nc(Sc2ccc(C(F)(F)F)cc2[N+](=O)[O-])n[nH]1
nt,8%[60.1 µM],-21%,nt,nt,nt,c1cn(-c2ccnc(-c3ccc4c(c3)OCO4)n2)cn1

In another format: three of the compounds above.
> Cc1cc(Br)ccc1NC(=O)CNC(=O)Cc1ccc(S(=O)(=O)N2CCOCC2)s1
- LDHA block: -4
- POLK inh: -2%
- ALOX12 inh: 1%
- ERG-DNA inh: nt
- Apoferritin bind: nt
- RGS4 inh: -39%
> C=CCNC(=O)Nc1ccc2oc(C)nc2c1
- LDHA block: 7
- POLK inh: -10%[60.1 µM]
- ALOX12 inh: 0%
- ERG-DNA inh: nt
- Apoferritin bind: -9%
- RGS4 inh: 0%
> COc1ccccc1OCC(=O)NCc1ccco1
- LDHA block: 1
- POLK inh: 1%
- ALOX12 inh: 0%
- ERG-DNA inh: 0%
- Apoferritin bind: -6%
- RGS4 inh: -6%

From PubChem
